VACV mCherry inh: vaccinia inhibition (mCherry reporter). Potency, µM (top dose mostly 36.5 µM), for the others: at the top dose activity change, negative = inhibition, hits mostly inhibitors. actives 0.63% (n = 310,000). Vaccinia virus mCherry reporter infection, fluorescence; about a quarter of the inactives have no number; active = well fitted inhibition curve with a large enough effect; inconclusive = small, poorly fitted or top-dose-only effect; inactive = no such curve, though single readings can be large or run the other way; tested in A549 cells; also: nearly all actives have a fitted effect of over 35% in size; inactives centre near -10
Vaccinia Venus: vaccinia inhibition (Venus reporter); Vaccinia virus Venus reporter expression, fluorescence; actives 0.46% (n = 330,000); Potency, µM (series often up to 36.5 µM), for inactives: at the top dose activity change, negative = inhibition, usual class: inhibitors; active means well fitted inhibition curve with a large enough effect; inconclusive means small, poorly fitted or top-dose-only effect; inactive means no such curve, though single readings can be large or run the other way; tested in A549 cells; also: nearly all actives have a fitted effect of over 30% in size; inactives centre near -10
Numbers without * were called inactive; i = inactive; ? = inconclusive; . = not tested or not shown; & = joins results of further samples; [ ] = another dose, or the depositor's remark. % is scaled to controls: 0 for no effect and ±100 for the full control effect; potency is read from the fitted curve at half-maximal effect.

SMILES	VACV mCherry inh	Vaccinia Venus
CSc1ncc(C(=O)Nc2cccc(Cl)c2C)c(C)n1	i	-11%
O=C(c1ccc(N2C(=O)CCC2=O)cc1)N1CCN(c2ccccc2)CC1	.	-6%
Cc1ccc(N2CC(C(=O)NC3CCCCCC3)CC2=O)cc1 (centres undefined)	-1%	-7%
O=C(OCC(=O)N1CCc2ccccc2C1)c1cccnc1Cl	i	-17%
CCOC(=O)c1c(-c2ccc(-c3ccccc3)cc2)csc1NC(=O)C1C2CCC(O2)C1C(=O)O (centres undefined)	-17%	-17%
CC(C)C1(C2CCCC2)NC(=O)NC1=O (centres undefined)	i	2%
Cc1cc(-c2cc(F)cc3c2OC(CNC(=O)CCn2cncn2)C3)ccc1F (centres undefined)	-14%	-1%
O=c1oc2ccccc2c2c1C(c1ccc(Cl)cc1)Nc1ccc3ccccc3c1-2 (centres undefined)	.	-6%
O=C(/C=C/Nc1ccc(F)cc1)c1ccc(Oc2ncccn2)cc1	.	-8%
O=C(CSc1nc(C(F)(F)F)cc(=O)[nH]1)N1CCC(Cc2ccccc2)CC1	-21%	-23%
CC(=O)SC(C)CC(=O)Nc1ccccc1 (centres undefined)	-18%	-14%
Cc1c(CNC2CCC(C)CC2)c(C(=O)O)c(C)n1Cc1ccccc1 (centres undefined)	-12%	-12%
CCN(CC1CCCO1)C(=O)CCc1nnc(Cc2ccc3c(c2)OCO3)o1 (centres undefined)	-4%	-8%
COc1cc(NS(=O)(=O)c2ccc(Nc3nc(-c4cccc([N+](=O)[O-])c4)cs3)cc2)nc(OC)n1	-14%	-9%
Cc1cc(C(=O)NN=C2CC(=O)CC(C)(C)C2)c(C)o1	i	-3%
CC(=O)CSc1nc(N(C)C)nc(N(C)C)n1	-9%	-5%
Cc1ccc(S(=O)(=O)CC(=O)Nc2sc3c(c2C#N)CCCC3)cc1	-4%	1%
O=C(Nc1c2c(nn1-c1ccccc1)CS(=O)(=O)C2)c1ccc(Br)o1	i	-9%
CCOC(=O)C1CCN(C(=O)C2CCN(S(=O)(=O)CC)CC2)CC1	-12%	-8%
COc1ccc(-c2nnc(SCC(=O)N3CCN(c4ccccc4)CC3)o2)cc1OC	-16%	-8%
CC(=O)Nc1cccc(Cl)c1C(=O)O	.	-8%
COc1ccc(-n2cnnc2SCC(=O)Nc2nc(C)c(Cl)cc2Cl)cc1	-1%[1.46 µM]	-14%
Cc1ccccc1CNC(=O)Cc1cccs1	i	-11%
CCOc1ccc(C2c3[nH]c4ccccc4c3CCN2CCCn2cccn2)cc1 (centres undefined)	?	1%
CCc1nc2c(OCC(=O)N(C)C)cccn2c1N(C=O)Cc1ccc(OC)cc1	-8%	2%
Next part.
SMILES	VACV mCherry inh	Vaccinia Venus
COc1ccc(CN2CCNC(=O)C2CC(=O)O)c(OC)c1 (centres undefined)	-22%	-5%
CC(C)CN(C(=O)COC(=O)c1ccccc1Sc1ccccc1C#N)C1CCS(=O)(=O)C1 (centres undefined)	i	-23%
Cc1nc2ccc(S(=O)(=O)Nc3cc(-c4nc5cccnc5s4)ccc3C)cc2s1	-10%	-20%
COc1ccc(/C=N/Nc2cc(C)nc(N3CCOCC3)n2)cc1	-19%	-4%
CC1(C)N=C(N)NC(=NCCCOc2ccc([N+](=O)[O-])cc2)N1	-11%	-5%
CCN(C[C@H]1N[C@@](C)(C(=O)OC)[C@H]2C(=O)N(Cc3ccccc3)C(=O)[C@@H]12)C(=O)Nc1ccc(Cl)cc1	-27%	-20%
CON(C)C(=O)CC(CNC(=O)OC(C)(C)C)c1ccc(Cl)cc1 (centres undefined)	-5%	-9%
O=C(CN1CCN(c2ccccn2)CC1)NCCc1ccccc1	i	-15%
O=C(Nc1ccc(N2CCOCC2)cc1)C1(c2ccc(Cl)cc2)CCC1	-15%	-1%
C[C@H](NC(=O)c1ncn2c1C(=O)NC[C@H]2C)C(=O)OC(C)(C)C	-1%	-8%
CCc1nnc(NC(=O)CSc2nnc(CSc3nc(C)cc(C)n3)o2)s1	-11%	-3%
Cc1c(-c2nsc(NC(=O)c3ccccc3)n2)nnn1-c1ccc(C(F)(F)F)c(Cl)c1	-1%	-10%
Cn1c(SCC(=O)N2CCOCC2)nnc1-c1ccncc1	i	-10%
C/C=C/CC#N	i	-11%
CCOc1ccc(NC(=O)CSc2nnc(-c3ccc(OCC)cc3)o2)cc1	i	-5%
CCCOc1cccc(C2c3c(oc4ccc(F)cc4c3=O)C(=O)N2CCc2ccc(OC)cc2)c1 (centres undefined)	?	?
CCOc1ccc(NC(=O)CC2C(=O)N(c3ccccc3)C(=O)N2CCc2cccs2)cc1 (centres undefined)	-10%&8%	-5%&-21%
Cc1ccn2c(Nc3ccc(F)cc3)c(-c3ccc(C)o3)nc2c1	-7%	-7%
Cc1cc2oc3c(c(=O)c2cc1C)C(c1ccc(F)cc1)N(CCCN1CCOCC1)C3=O (centres undefined)	-28%	-18%
CCCOC(=O)C1=C(C)NC2=C(C(=O)CC(C)(C)C2)C1c1ccc(N(C)C)cc1 (centres undefined)	.	-15%
Cc1cccc(N2CCN(C(=O)C3CCN(S(=O)(=O)c4cccc5nsnc45)CC3)CC2C)c1 (centres undefined)	-26%	-18%
O=C(Cc1cccs1)Nc1ccccc1NC(=O)Cc1cccs1	.	-13%
Cc1ccccc1OCCc1c(C)[nH]c(=S)[nH]c1=O	-27%	-26%
CCC(C)CNC(=O)c1[nH]c(C(F)(F)F)nc1-c1ccccc1 (centres undefined)	24%	-3%
CCc1ccc2c(c1)-c1ccccc1S(=O)(=O)N2CC(=O)N1CCCCC1	-17%	-1%

Reformatted: results already given
SMILES,VACV mCherry inh,Vaccinia Venus
Cc1ccccc1OCCc1c(C)[nH]c(=S)[nH]c1=O,-27%,-26%
Cc1cccc(N2CCN(C(=O)C3CCN(S(=O)(=O)c4cccc5nsnc45)CC3)CC2C)c1 (centres undefined),-26%,-18%

Remaining list, next part.
SMILES	VACV mCherry inh	Vaccinia Venus
O=C(c1ccc2ncsc2c1)N1CCCCC1	-3%	5%
O=C(CC(=O)Nc1ccc(Cl)c(Cl)c1)N/N=C/c1ccc(O)cc1	-14%	0%
O=C(NCC1CCCN(Cc2ccc3nonc3c2)C1)c1ccc(F)cc1 (centres undefined)	-6%	-7%
CCc1ccc(NC2=CC(=O)CC(C)(C)C2)cc1	-17%	-15%
O=C1NC[C@H](CCCCN2C[C@H](Cc3ccccc3)N(CC3CCCCC3)C(=O)C2=O)N(CCc2ccccc2)C1=O	-5%	-10%
Cc1ccc(SCCC(=O)Nc2ccccc2C(=O)N2CCOCC2)cc1	-23%	-17%
O=C(NCc1cccs1)c1cccc(N2CCCC2=O)c1	i	1%
CNC(=O)C1CC(=O)N(Cc2ccc3c(c2)OCO3)C(=Nc2ccc(OC)cc2)S1 (centres undefined)	-16%	-11%
CCN(CC(=O)Nc1ccc2c(c1)OCCO2)C(=O)C(C)Oc1ccc(F)cc1 (centres undefined)	i	-13%
Cc1[nH]n(-c2ccccc2)c(=O)c1C(C[N+](=O)[O-])c1ccccc1Cl (centres undefined)	-13%	-10%
CCn1cnnc1SCC(=O)Nc1ccccc1C(=O)NC1CC1	-13%	-7%
CCOC(=O)c1cc2cc(OC)ccc2n1C1CCN(CCc2ccccc2)CC1	7%	-6%
CCOc1ccccc1NC(=O)Cn1c(=O)n(CCC(=O)NCc2ccc3c(c2)OCO3)c(=O)c2ccccc21	i	-6%
Cc1ccc(O)c(CNc2ccc(S(=O)(=O)Nc3nccs3)cc2)c1	-1%	9%
O=S(=O)(Nc1cccc2ncccc12)c1cccs1	13µM*	?
OCC[C@@H]1C[C@@H](O)[C@H](O)[C@]2(CCCCO2)O1	i	-8%
CCc1ccc(/C=C/C(=O)c2cc(Br)ccc(=O)c2O)cc1	.	?
Cc1ncc(CN2CCC(CO)(CCOc3ccccc3)CC2)s1	-18%	-1%
c1ccc(Cn2cc(CSc3ccccc3)nn2)cc1	i	-16%
COc1ccc(CCn2c(C)nc3ccccc3c2=O)cc1OC	-4%	-14%
CN1C(=O)[C@H]2[C@@H](c3ccc(C(F)(F)F)cc3)N[C@]3(CCCN(Cc4ccc(C(F)(F)F)cc4)C3=O)[C@H]2C1=O	-15%	?
O=C(CSc1ccccc1)N1CCN(S(=O)(=O)c2ccccc2F)CC1	-3%	-2%
COc1cccc(/C=N/NC(=O)Cn2nc(C)c([N+](=O)[O-])c2C)c1O	11µM*	?
CSC1=C(C#N)C(c2ccc(C(C)C)cc2)CC(=O)N1 (centres undefined)	-25%	-28%
COc1ccc(C(C)(NC(C)=O)c2nc(-c3cncnc3)cs2)cc1 (centres undefined)	4%	-1%

16 entries from above, sorted by molecular weight, ascending.
SMILES	VACV mCherry inh	Vaccinia Venus
OCC[C@@H]1C[C@@H](O)[C@H](O)[C@]2(CCCCO2)O1	i	-8%
O=C(c1ccc2ncsc2c1)N1CCCCC1	-3%	5%
c1ccc(Cn2cc(CSc3ccccc3)nn2)cc1	i	-16%
O=S(=O)(Nc1cccc2ncccc12)c1cccs1	13µM*	?
O=C(NCc1cccs1)c1cccc(N2CCCC2=O)c1	i	1%
COc1ccc(CCn2c(C)nc3ccccc3c2=O)cc1OC	-4%	-14%
CCn1cnnc1SCC(=O)Nc1ccccc1C(=O)NC1CC1	-13%	-7%
COc1ccc(C(C)(NC(C)=O)c2nc(-c3cncnc3)cs2)cc1 (centres undefined)	4%	-1%
CCc1ccc(/C=C/C(=O)c2cc(Br)ccc(=O)c2O)cc1	.	?
Cc1ccc(O)c(CNc2ccc(S(=O)(=O)Nc3nccs3)cc2)c1	-1%	9%
Cc1ccc(SCCC(=O)Nc2ccccc2C(=O)N2CCOCC2)cc1	-23%	-17%
O=C(CSc1ccccc1)N1CCN(S(=O)(=O)c2ccccc2F)CC1	-3%	-2%
CCN(CC(=O)Nc1ccc2c(c1)OCCO2)C(=O)C(C)Oc1ccc(F)cc1 (centres undefined)	i	-13%
CCOC(=O)c1cc2cc(OC)ccc2n1C1CCN(CCc2ccccc2)CC1	7%	-6%
CN1C(=O)[C@H]2[C@@H](c3ccc(C(F)(F)F)cc3)N[C@]3(CCCN(Cc4ccc(C(F)(F)F)cc4)C3=O)[C@H]2C1=O	-15%	?
CCOc1ccccc1NC(=O)Cn1c(=O)n(CCC(=O)NCc2ccc3c(c2)OCO3)c(=O)c2ccccc21	i	-6%

Next section:
SMILES	VACV mCherry inh	Vaccinia Venus
COCCn1c(SCc2ccccc2)nc2c1c(=O)[nH]c(=O)n2C	-3%	-12%
COc1ccc(C(=O)NC2CC2)cc1OC1CCN(Cc2cc(C)c(C)cc2C)CC1	i	-12%
CCOc1cccc(CC(=O)N2CCc3c([nH]c4ccccc34)C2c2ccccc2)c1OCC (centres undefined)	-16%	-15%
OC(c1ccc(F)c(F)c1)c1nc(-c2ccoc2)cs1 (centres undefined)	-17%	1%
O=C(Nc1ccc(N2CCCC2)c(Cl)c1)c1ccc(Br)o1	-18%	-8%
O=C(NCCc1ccco1)C(=O)NCC1OCCCN1S(=O)(=O)c1ccccc1 (centres undefined)	-19%	-5%
C=C(C)CSc1nc2ncccc2[nH]1	.	2%
COc1cc(C2c3cc4c(cc3OC(N3CCOCC3)C2C)OCO4)cc(OC)c1OC(C)=O (centres undefined)	i	?
CCC1(CC)C(=O)NC(=O)NC1=S	-9%	-5%
O=C(COC(=O)c1nc(Cl)c(Cl)c(Cl)c1Cl)c1ccc[nH]1	-13%	-5%
Cc1cccc2c1Sc1ccccc1CC2=O	.	-15%
O=C(Nc1cnc2ccccc2c1)c1cccnc1	-10%	-15%
Cc1cc(C)nc(Nc2n[nH]c(COc3ccccc3)n2)n1	-15%	-12%
C=CCn1c(SCC(=O)Nc2ncc(Cc3cc(C(F)(F)F)ccc3Cl)s2)nnc1-c1ccncc1	-5%	-3%
CCOc1ccccc1NC(=O)C(CC)Sc1nc2ccncc2[nH]1 (centres undefined)	-8%	-6%
O=C(c1[nH]c(C(F)(F)F)nc1-c1ccccc1)N1CCN(c2ccccc2)CC1	-3%	-28%
COc1ccc(C2Nc3ccccc3C(=O)N2c2ccccc2)cc1CN1CCOCC1 (centres undefined)	-3%	-9%
Cc1ccc(C(=O)NCCc2nnc3c(C(F)(F)F)cc(Cl)cn23)o1	-7%[7.34 µM]	-7%[7.34 µM]
CS(=O)(=O)c1ccc(C2=C(CNC(=O)c3ccncc3)[C@H]3CC[C@@H](C2)N3Cc2ccco2)cc1	i	-4%
CCc1nc2c(OCc3ccc(Cl)cc3)cccn2c1N(C)C(=O)c1cccs1	?	?
CCc1ccc(C(=O)COC(=O)CNC(=O)c2cccs2)cc1	-17%	-7%
Cn1c(CN2CCCC2)nc2cc(NS(=O)(=O)c3ccccc3)ccc21	i	-12%
O=C(COc1ccc([N+](=O)[O-])cc1)Nc1ccc(S(=O)(=O)N2CCOCC2)cc1	-23%	-15%
CCN1CCN(C(=S)NCc2ccc(C)cc2)CC1	-19%	-18%
O=C(O)CCc1nn2c3ccccc3n(CCO)c2nc1=O	i	-6%
(more compounds)
SMILES	VACV mCherry inh	Vaccinia Venus
O=C(CC1Sc2ccccc2NC1=O)NNc1ccc(F)cc1 (centres undefined)	-16%	-22%
CN(C)c1ccc(CNc2nc3ccccc3n2C)cc1	-5%	-5%
CN(C)CCCC(=O)c1ccc2c(c1)OCO2	.	2%
C=CCOc1ccccc1/C=c1\sc2nc(-c3oc4ccccc4c3C)nn2c1=O	-1%	-3%
Cc1ccc(S(=O)(=O)N2CCOCC2)cc1NC(=O)COC(=O)c1cccc(Cl)c1Cl	-1%	-5%
CCOc1cccc(N(C(=O)CNC(=O)c2ccco2)C(C(=O)NCC2CCCO2)c2ccccc2)c1 (centres undefined)	4%	-7%
Cc1cc(C)c2c(n1)nn1c(C)c(CCC(=O)NCc3ccco3)c(C)nc21	i	-3%
O=C(NCCc1csc2nc(-c3cccc(F)c3)nn12)c1ccc(Br)o1	-1%	6%

High-throughput results: PubChem BioAssay, National Center for Advancing Translational Sciences (NCATS)

Not a hit list. About 0.88% of those tested had a hit in this group.
